High-throughput results: PubChem, several laboratories
Ecoli growth: E. coli growth inhibition; Escherichia coli growth, OD600, 23 h; active compounds read low; OD600 absorbance (no concentration beside the values); 0.21% of 330,000 active;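 active means OD600 absorbance below the run mean of sample wells minus 3.6 SD, in any replicate, cut at about 0.56 in these data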;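 further: stock transfer was 300 nL into about 60 µL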
UCH37 DUB inh: inhibitors of human deubiquitinating enzyme UCH37; 0.33% of 330,000 active; purified proteasome/UCH37, Ub-AMC cleavage fluorescence; inhibition, % (no concentration beside the values); Q9Y5K5;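 active means mean of two replicates above 20%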;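 further: 0% = compound-free wells with enzyme and 100% = wells lacking proteasome; stock transfer was 100 nL into about 20 µL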
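assay system = human UCH37 enzyme supplied as purified proteasome complex | amount = proteasome at 0.15 nM in the dispensed enzyme solution | schedule = 30 min compound-proteasome preincubation then 25 min substrate reaction, room temperature | measured by = fluorescence, ex 355 nm, em 460 nm | benchmarks = no-proteasome wells (full inhibition) and compound-free wells (no inhibition)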
ALR inh: inhibitors of human sulfhydryl oxidase ALR; P55789; purified ALR, DTT oxidation, H2O2 HRP-luminol luminescence; inhibition, % (concentration not given with the values); 3.8% of 290,000 active; AID 485317;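 active means mean and each replicate at 75% or more; inconclusive means only one of the two met; inactive means neither met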;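 further: stock transfer was 7.5 nL into about 7.5 µL; 0% = neutral wells and 100% = wells with inactivated enzyme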
LANA-H2A inh: blocks KSHV LANA binding to histone H2A/H2B; inhibition, % (no concentration beside the values); Q9QR71; cell-free LANA-H2A/H2B peptide, fluorescence polarization; AID 2629; 0.6% of 320,000 active; in the data active means inhibition mostly above about 10%, no sharp cut-off; inactive means mostly below about 6.7%;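 further: stock transfer was 7.5 nL into about 10 µL; 0% = median of vehicle wells and 100% = median of positive control wells; one replicate is shown; the record names a cut of 25% in any replicate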
Target sequence (Q9QR71 whole entry, looked up): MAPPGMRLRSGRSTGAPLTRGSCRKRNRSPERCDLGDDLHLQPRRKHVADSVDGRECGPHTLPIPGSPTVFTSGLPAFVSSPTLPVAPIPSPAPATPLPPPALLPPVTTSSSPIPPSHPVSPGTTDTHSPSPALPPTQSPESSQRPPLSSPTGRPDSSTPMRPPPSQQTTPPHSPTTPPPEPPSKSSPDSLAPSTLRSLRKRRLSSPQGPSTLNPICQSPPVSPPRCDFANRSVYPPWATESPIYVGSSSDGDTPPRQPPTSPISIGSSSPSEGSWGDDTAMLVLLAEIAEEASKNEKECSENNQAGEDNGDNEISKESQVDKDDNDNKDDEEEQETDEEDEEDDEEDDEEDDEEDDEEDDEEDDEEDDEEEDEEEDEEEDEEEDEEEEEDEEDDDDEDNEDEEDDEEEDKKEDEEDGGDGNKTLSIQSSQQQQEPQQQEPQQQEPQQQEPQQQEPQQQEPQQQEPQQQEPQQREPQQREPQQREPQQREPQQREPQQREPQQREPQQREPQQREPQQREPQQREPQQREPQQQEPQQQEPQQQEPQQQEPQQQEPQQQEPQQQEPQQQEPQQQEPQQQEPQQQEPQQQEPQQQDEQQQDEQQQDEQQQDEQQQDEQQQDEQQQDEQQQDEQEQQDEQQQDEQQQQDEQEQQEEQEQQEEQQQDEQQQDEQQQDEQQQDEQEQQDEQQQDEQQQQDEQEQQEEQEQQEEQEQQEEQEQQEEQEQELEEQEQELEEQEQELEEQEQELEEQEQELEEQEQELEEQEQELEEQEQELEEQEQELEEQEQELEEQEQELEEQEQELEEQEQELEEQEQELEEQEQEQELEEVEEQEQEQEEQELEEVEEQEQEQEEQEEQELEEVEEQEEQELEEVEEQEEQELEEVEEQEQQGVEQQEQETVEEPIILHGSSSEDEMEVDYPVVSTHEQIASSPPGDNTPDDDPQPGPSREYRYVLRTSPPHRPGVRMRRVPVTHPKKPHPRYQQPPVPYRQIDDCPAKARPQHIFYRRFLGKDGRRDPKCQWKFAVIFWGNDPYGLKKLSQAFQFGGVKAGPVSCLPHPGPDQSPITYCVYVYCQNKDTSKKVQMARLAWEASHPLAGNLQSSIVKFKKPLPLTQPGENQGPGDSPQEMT
Beta2AR agonist: agonists of human beta-2 adrenergic receptor inducing internalization; Am2.2-beta2AR cells, FAP receptor internalization, flow cytometry; reference of the scale not given here; response, % (no concentration beside the values); 0.43% of 340,000 active;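 active means response above a set limit, near 3 SD of response in nonfluorescent compounds, cut at about 42% in these data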;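 further: stock transfer was 100 nL into about 11 µL; a reference agonist was the positive control; negative values mostly stem from fluorescent compounds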
HNF4A DNA FP: change in binding of human HNF4 alpha to DNA; P41235; HNF4a-FITC DNA binding, fluorescence polarization, 1 h; activity change, % at 10 µM; 0.3% of 360,000 active; AID 1224865; in the data active means activity change above about 30%, passing the limit was not always enough;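 further: controls were the assay level and a saturating level of protein; the project sought stronger binding though the title names inhibitors; some compounds called inactive have numbers as strong as hits; positive values seem to mean higher polarization but the record does not say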
FGF22 binding: FGF22 (human) thermal shift binding; Q9HCT0; recombinant FGF22 thermal shift, SYPRO orange fluorescence; percent of sucrose octasulfate shift, DMSO zero; calls only at 9.99 µM; 1.5% of 340,000 active;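 active means melting point raised past a set limit in the mean and every replicate; inconclusive means no clear call; three in four hits are not shown here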
* = called active by the depositor; i = inactive; u = inconclusive; x = no result given.

SMILES	Ecoli growth	UCH37 DUB inh	ALR inh	LANA-H2A inh	Beta2AR agonist	HNF4A DNA FP	FGF22 binding
COc1cccc2c(=O)n(CC(=O)Nc3ccccc3F)ccc12	0.69	-3.9	-8	-1.9	-11	-1.7	i
C=CCN1C(=O)C(O)(CC(=O)c2ccccc2)c2ccccc21 (centres undefined)	0.74	5.3	-2	1.5	15	0.2	x
O=C(O)CCn1nc(-c2ccc(F)cc2)cc(Cc2ccccc2)c1=O	0.71	0.1	0	-4.1	5	-4.0	x
Cc1ccc(S(=O)(=O)Nc2ccccc2/C=N/c2nc3ccccc3n2C(C)C)cc1	x	x	2	7.8	11	2.9	i
O=C(COc1ccc(S(=O)(=O)N2CCCC2)cc1)NCc1cccnc1	0.69	0.8	-9	-0.1	-4	-0.3	i
Nc1ccc(N2CCOCC2)c(Cl)c1	0.66	4.6	62	-2.8	4	0.5	x
COc1ccc(CNc2ncc(-c3ccccc3)n2C)c2ccccc12	0.63	6.6	22	-3.5	-2	-0.9	i
Cc1ccc(Cn2c(SCCN3CCCCC3)nc3c2c(=O)[nH]c(=O)n3C)cc1	0.7	-0.1	6	0.3	6	1.9	i
Cc1nn(Cc2ccccc2Cl)c(Cl)c1/C=C/C(=O)OCC(=O)NC(N)=O	0.81	2.5	x	x	-7	0.9	x
CSc1ccc(S(=O)(=O)NCC(=O)OCC(=O)NCC2CCCO2)cc1[N+](=O)[O-] (centres undefined)	0.64	6.4	-12	0.2	-8	3.6	i
C=CCn1c(CNC(=O)c2ccccc2F)nnc1SCC(=O)N1CCOCC1	0.64	4.4	-8	-6.5	3	-2.9	i
CCCCn1c(N)c(N(CC(C)C)C(=O)c2cccc(S(=O)(=O)N(CC)c3ccccc3)c2)c(=O)[nH]c1=O	0.71	-4.2	x	x	-7	3.8	i
CCCc1nnc(SCC(=O)Nc2ccc3c(c2)OCCO3)n1CCOC	0.66	0.8	-22	-0.1	2	1.6	i
O=P(Cc1cccc2ccccc12)(c1ccccc1)c1ccccc1	0.66	1.5	x	x	-3	4.8	i
CCNC(=S)NNC(=O)Cn1c(=O)c2c(ncn2CCOC)n(Cc2ccccc2)c1=O	0.67	0.4	26	-1.5	-2	0.4	i
Cc1ccc(Sc2c([N+](=O)[O-])c(=O)n(C)c3ccccc23)cc1	0.76	4.6	x	-3.2	18	-3.6	i
Cc1ccccc1CN(CC1CCC(C(=O)O)CC1)C(=S)Nc1ccccc1F (centres undefined)	0.69	1.0	x	-0.9	2	-1.1	x
O=c1c(-c2c(O)cc(O)c3c(=O)cc(-c4ccc(O)cc4)oc23)c(-c2ccc(O)cc2)oc2cc(O)cc(O)c12	0.68	10	52	1.4	-3	-24	i
O=C(Cn1nc(-c2ccccc2)ccc1=O)NCc1ccc(F)cc1	0.71	5.3	-1	2.2	7	0.1	i
COc1ccc(NC(=O)c2cc3c(=O)n4ccccc4nc3n2C)c(OC)c1	0.72	-19	x	1.3	-3	0.8	i
O=S(=O)(Nc1ccc(O)c(Sc2nc3ccccc3s2)c1)c1ccc(F)cc1	0.65	4.9	u	1.9	-1	2.8	x
Cc1ccc(OCCCC(=O)NC2CCCCC2)cc1	0.65	6.6	-2	-30	-3	0.1	i
COc1ccc(-n2cccc2C=O)cc1OC	0.71	6.1	17	-0.3	6	0.5	x
O=C(CCN1C(=O)c2ccccc2C1=O)NC(=S)Nc1ccccc1Cl	0.69	2.1	-1	-1.3	2	-3.6	i
O=C(N/N=C/c1ccc(OC(=O)c2ccccc2)c([N+](=O)[O-])c1)c1ccc(O)cc1	x	x	94*	5.2	-5	0.9	x
Additional records follow:
SMILES	Ecoli growth	UCH37 DUB inh	ALR inh	LANA-H2A inh	Beta2AR agonist	HNF4A DNA FP	FGF22 binding
O=C(NCC1CCCO1)c1nn2c(C(F)(F)F)cc(-c3cccs3)nc2c1Br (centres undefined)	0.66	-15	-17	1.9	-11	15	i
Cc1ccc(NC(=S)NNC(=O)c2nn(C)cc2Cl)cc1	0.73	1.9	91*	4.2	-11	1.1	x
CCOc1ccccc1NS(=O)(=O)c1ccc(OC)c(OC)c1	0.67	7.1	-6	3.5	-1	6.7	x
CCN(CC)C(=O)C1CCCN(Cc2ccc(OC)c(C)c2C)C1 (centres undefined)	0.67	6.4	-17	2.8	9	-1.4	x
Cc1ccc(S(=O)(=O)NCc2cn3ccsc3n2)c(C)c1	0.73	3.5	-2	17	-8	2.5	x
CCOC(=O)c1csc(NC(C)=O)n1	0.66	1.1	-4	-3.4	-6	0.5	i
Cc1ccccc1-c1nc(CS(=O)(=O)CC(=O)Nc2cc(F)ccc2F)c(C)o1	0.79	1.7	-1	-7.0	2	2.4	i
COCCn1cc(C(=S)N2CCOCC2)c2ccccc21	0.7	6.7	6	-4.7	-1	5.2	x
CCOC(=O)c1cc2c(ccn2C)n1Cc1ccccc1C	0.74	0.2	-17	1.8	13	-2.6	i
COc1cccc(N2CC(O)=C(c3nc4ccccc4c(=O)[nH]3)C2=N)c1	0.69	-42	-9	6.9	13	4.0	x
Cc1cccc2c1cnn2C(=O)CCC(=O)N1CCC(C)CC1	0.74	2.7	9	1.5	4	7.0	i
Cc1cc(OC(C)C(=O)Nc2ccccc2C(=O)N2CCCC2)ccc1Cl (centres undefined)	0.7	1.3	6	-8.1	1	3.1	i
COc1ccc(Cc2noc(CN3CCN(c4ccc(Cl)cn4)CC3)n2)cc1OC	0.72	0.7	x	0.1	2	-0.7	i
COc1cccc(C(=O)COC(=O)C(C)N2C(=O)c3ccccc3C2=O)c1 (centres undefined)	0.68	1.8	-1	0.2	4	-1.1	x
CCN(C(=O)CSc1nnc(-c2ccncc2)n1-c1ccccc1)C1CCS(=O)(=O)C1 (centres undefined)	0.74	-4.2	-12	-3.2	16	0.8	i
CC(=O)c1ccc(OC(=O)C2c3ccccc3Oc3ccccc32)cc1	0.71	-1.0	-2	-1.9	-5	-0.3	x
Cc1cc(-c2ccccc2)nc(Nc2nc3c(C)cccc3c(=O)[nH]2)n1	0.74	0.4	x	x	-13	53*	i
COc1cc2c(O)c3c(c(-c4ccc5c(c4)OCO5)c2cc1OC)C(=O)OC3	0.68	-49	59	-7.0	45*	0.0	x
CCOC(=O)C1(C)NC(c2ccco2)C2C(=O)N(C)C(=O)C21 (centres undefined)	0.68	-1.3	x	-0.1	-2	-5.8	i
Cc1cc(-c2nnc(SCC(=O)Nc3ccccc3)n2C)no1	0.66	-3.3	-17	-0.2	-7	-8.3	i
O=C(NCCCN1CCOCC1)c1ccccc1-c1ccccc1	0.65	3.5	-5	5.9	7	0.2	x
CC(C)(C)N1C(=O)c2ccc(C(=O)Nc3nccs3)cc2C1=O	0.74	1.7	4	1.6	-19	-3.5	x
C/C=C/c1ccc(OCCOc2cc(C=O)ccc2OC)c(OC)c1	0.71	-0.3	-4	0.7	-2	-3.7	x
CCOC(=O)c1ccc(CC(=O)c2ccc(O)c(O)c2O)o1	0.71	11	x	x	3	-5.6	i
Cc1cc(C)c(S(=O)(=O)Nc2cccc(/C=C/C(=O)O)c2)c(C)c1	x	x	0	3.8	7	0.3	x
New compounds follow.
SMILES	Ecoli growth	UCH37 DUB inh	ALR inh	LANA-H2A inh	Beta2AR agonist	HNF4A DNA FP	FGF22 binding
CCN(CC(=O)Nc1ccc(NC(C)=O)cc1)C(=O)Cc1ccccc1F	0.7	2.2	2	2.3	-3	0.0	i
CCOc1ccc(N=C2NC(=O)CS2)cc1	0.7	2.5	-6	9.0	-7	-2.3	i
S=C(NCc1ccc2[nH]c3c(c2c1)CCCC3)Nc1ccccc1Cl	0.77	-1.3	-12	0.8	-7	0.3	i
CN(CC(=O)Nc1cccc(F)c1)C(=O)c1cn(-c2ccccc2)nc1-c1ccccc1	0.71	3.1	-4	-4.0	-18	-1.0	i
CC1=NN(c2ccccc2)C(=O)/C1=C\c1sccc1C	0.66	8.1	-12	5.2	5	2.7	i
O=C(Nc1cccc(Cl)c1)NC1CC2CCC(C1)N2Cc1cccs1 (centres undefined)	0.7	6.0	1	-6.2	-4	3.9	i
CCCc1ccc(S(=O)(=O)N2CCN(C(C)C(=O)NCc3ccccc3)CC2)cc1 (centres undefined)	0.7	3.3	x	x	1	1.3	i
CCOC(=O)C1(CCOc2ccccc2)CCN(Cc2cccc(-n3cccn3)c2)CC1	0.67	5.1	-28	-1.2	-17	-2.6	i
CCC(=O)N1c2ccc(S(=O)(=O)NCc3ccco3)cc2CC1C (centres undefined)	0.7	3.3	-9	0.6	-1	-7.6	i
CCn1c(SCC(=O)Nc2cc(C)on2)nnc1-c1ccncc1	0.68	-6.5	-9	1.5	12	0.4	x
Cc1ccc(Cl)cc1NC(=S)N(CCN(C)C)C(C)c1ccccn1 (centres undefined)	0.7	0.3	0	-1.1	-1	1.2	i
COc1ccc2c(c1)C(c1ccccc1)NC(=O)C2 (centres undefined)	0.68	0.6	36	0.0	-11	-2.6	i
CN(C)/N=C/c1ccc(OS(=O)(=O)c2ccccc2)cc1	x	x	x	-2.7	-6	3.2	x
COc1ccccc1-c1nnc(SCC(=O)NC2CCCCC2)n1N	0.72	3.5	1	-0.6	12	2.8	i
O=S(=O)(Cc1nnnn1-c1ccccc1)c1ccccc1	0.69	2.1	-8	1.6	1	3.2	i
Cc1cccc(-c2nnc(SCC(=O)NC3CCCC3)o2)c1	0.72	1.7	x	x	-8	2.7	i
O=C(NC1CCCCC1)C(=S)NC1CCCCC1	0.66	3.4	0	3.7	x	x	x
CN(CC(=O)NC1CCCCC1)S(=O)(=O)c1ccc(Cl)cc1	0.7	0.7	-5	-5.3	1	-1.3	x
COC(=O)C1=C(Nc2ccc(C)cc2)C=C(C)C(C(=O)OC)C1c1ccc(OC)cc1 (centres undefined)	0.7	-3.4	-5	2.0	1	0.8	x
O=C(NCc1ccccc1CN1CCCC1)c1cccc(S(=O)(=O)N2CCCC2)c1	0.68	3.1	-1	3.2	4	11	i
COc1cc(OC)cc(-c2nc(-c3cccs3)no2)c1	x	x	-15	-1.1	1	1.9	i
O=S(=O)(CC(O)CS(=O)(=O)c1ccc(Cl)cc1)c1ccccc1 (centres undefined)	0.66	4.6	-2	0.7	-3	-1.4	i
CC(=O)Nc1ccc(S(=O)(=O)NCCC(=O)OCc2nnc(-c3ccccc3)o2)cc1	0.64	2.7	5	-6.7	0	5.6	i
Cc1ccc(C)c(NC(=O)C(=O)NCCCN2CCOCC2)c1	0.67	4.8	-2	0.2	-2	-0.8	i

Grouped by structure: the compounds so far containing fluorine (ten)
SMILES	Ecoli growth	UCH37 DUB inh	ALR inh	LANA-H2A inh	Beta2AR agonist	HNF4A DNA FP	FGF22 binding
COc1cccc2c(=O)n(CC(=O)Nc3ccccc3F)ccc12	0.69	-3.9	-8	-1.9	-11	-1.7	i
O=C(O)CCn1nc(-c2ccc(F)cc2)cc(Cc2ccccc2)c1=O	0.71	0.1	0	-4.1	5	-4.0	x
C=CCn1c(CNC(=O)c2ccccc2F)nnc1SCC(=O)N1CCOCC1	0.64	4.4	-8	-6.5	3	-2.9	i
Cc1ccccc1CN(CC1CCC(C(=O)O)CC1)C(=S)Nc1ccccc1F (centres undefined)	0.69	1.0	x	-0.9	2	-1.1	x
O=C(Cn1nc(-c2ccccc2)ccc1=O)NCc1ccc(F)cc1	0.71	5.3	-1	2.2	7	0.1	i
O=S(=O)(Nc1ccc(O)c(Sc2nc3ccccc3s2)c1)c1ccc(F)cc1	0.65	4.9	u	1.9	-1	2.8	x
O=C(NCC1CCCO1)c1nn2c(C(F)(F)F)cc(-c3cccs3)nc2c1Br (centres undefined)	0.66	-15	-17	1.9	-11	15	i
Cc1ccccc1-c1nc(CS(=O)(=O)CC(=O)Nc2cc(F)ccc2F)c(C)o1	0.79	1.7	-1	-7.0	2	2.4	i
CCN(CC(=O)Nc1ccc(NC(C)=O)cc1)C(=O)Cc1ccccc1F	0.7	2.2	2	2.3	-3	0.0	i
CN(CC(=O)Nc1cccc(F)c1)C(=O)c1cn(-c2ccccc2)nc1-c1ccccc1	0.71	3.1	-4	-4.0	-18	-1.0	i

Not all compounds are listed (hit frequency here may not be typical).
